Source: PubChem BioAssay
UCH37 DUB inh = inhibitors of human deubiquitinating enzyme UCH37. Q9Y5K5. purified proteasome/UCH37, Ub-AMC cleavage fluorescence. inhibition, % (test concentration not listed). 0.33% of 330,000 active;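 active means mean of two replicates above 20%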;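 further: 0% = compound-free wells with enzyme and 100% = wells lacking proteasome; stock transfer was 100 nL into about 20 µL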
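Signal – fluorescence, ex 355 nm, em 460 nm · System – Proteasome-bound UCH37 · Input – 0.15 nM proteasome as dispensed · Timing – 30 min preincubation with enzyme, 25 min cleavage at room temperature · Read-out basis – percent inhibition of cleavage signal versus uninhibited and no-proteasome wells · Medium – Tris-HCl pH 7.4 with ATP-MgCl2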
E coli growth = E. coli growth inhibition. Escherichia coli growth, OD600, 23 h; stronger effect = lower value. OD600 absorbance (no concentration beside the values). 0.21% of 330,000 active. AID 1053175;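 active means OD600 absorbance below the run mean of sample wells minus 3.6 SD, in any replicate, cut at about 0.56 in these data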;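 further: stock transfer was 300 nL into about 60 µL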
RanGTP-Impb inh = inhibitors of RanGTP-importin-beta interaction, primary screen, biochemical, FRET, CFP-Ran, YFP-importin-beta, homogeneous; 1.1% of 300,000 active; inhibition, % (test concentration not listed); cell-free CFP-Ran/YFP-importin-beta FRET ratio; AID 2216;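 active means most replicates above 15%; inconclusive means exactly half above 15%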;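 further: 0% = DMSO wells and 100% = Ran loaded with GDP instead of GTP; wells of about 40 µL received 100 nL stock; the first replicate is given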
AF4-AF9 inh = blocks AF4 peptide binding to human AF9. inhibition, % at 10 µM. P42568. AlphaScreen, biotin-AF4 peptide binding to FLAG-AF9. 0.47% of 350,000 active;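 active means every replicate reaching a set inhibition limit, whatever the replicate mean, cut at about 25% in these data; inconclusive means mean inhibition reaches that limit but some replicates miss it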;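 further: 0% = plate neutral control median and 100% = total signal loss; the record names both 10 and 1 µM as test concentration; the first replicate is given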
Target sequence (P42568 whole entry, looked up): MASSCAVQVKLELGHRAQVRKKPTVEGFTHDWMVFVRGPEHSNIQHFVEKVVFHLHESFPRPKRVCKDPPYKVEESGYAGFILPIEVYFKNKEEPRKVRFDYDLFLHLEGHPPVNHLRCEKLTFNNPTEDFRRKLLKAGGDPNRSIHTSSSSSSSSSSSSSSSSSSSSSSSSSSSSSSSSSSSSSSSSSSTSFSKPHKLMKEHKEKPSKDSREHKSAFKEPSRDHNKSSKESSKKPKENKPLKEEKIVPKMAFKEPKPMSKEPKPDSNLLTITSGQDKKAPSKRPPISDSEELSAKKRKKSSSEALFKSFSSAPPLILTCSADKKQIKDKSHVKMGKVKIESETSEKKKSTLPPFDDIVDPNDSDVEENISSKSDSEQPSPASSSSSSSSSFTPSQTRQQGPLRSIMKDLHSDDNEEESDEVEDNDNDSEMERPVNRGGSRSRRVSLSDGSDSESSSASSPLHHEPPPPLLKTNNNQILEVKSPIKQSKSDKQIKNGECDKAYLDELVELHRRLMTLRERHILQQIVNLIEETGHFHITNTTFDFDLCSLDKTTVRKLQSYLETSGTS
HNF4A DNA FP = change in binding of human HNF4 alpha to DNA. P41235. HNF4a-FITC DNA binding, fluorescence polarization, 1 h. activity change, % at 10 µM. 0.3% of 360,000 active; in the data active means activity change above about 30%, passing the limit was not always enough;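 further: controls were the assay level and a saturating level of protein; the project sought stronger binding though the title names inhibitors; some compounds called inactive have numbers as strong as hits; positive values seem to mean higher polarization but the record does not say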
Target sequence (P41235 whole entry, looked up): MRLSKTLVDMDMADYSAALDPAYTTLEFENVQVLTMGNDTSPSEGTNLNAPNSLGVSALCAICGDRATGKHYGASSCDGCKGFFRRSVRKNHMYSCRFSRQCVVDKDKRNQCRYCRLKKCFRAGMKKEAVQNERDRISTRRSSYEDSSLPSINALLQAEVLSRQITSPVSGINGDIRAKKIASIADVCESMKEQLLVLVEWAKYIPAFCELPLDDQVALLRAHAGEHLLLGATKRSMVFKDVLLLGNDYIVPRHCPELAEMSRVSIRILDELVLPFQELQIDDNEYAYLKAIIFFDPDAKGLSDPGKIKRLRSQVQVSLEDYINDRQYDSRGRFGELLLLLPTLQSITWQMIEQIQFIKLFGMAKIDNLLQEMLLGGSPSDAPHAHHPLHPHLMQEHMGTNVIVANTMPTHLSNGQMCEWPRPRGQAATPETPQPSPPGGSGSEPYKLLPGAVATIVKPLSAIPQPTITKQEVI
FGF22 binding = shifts melting point of recombinant human FGF22 | AID 651658 | Q9HCT0 | 1.5% of 340,000 active | recombinant FGF22 thermal shift, SYPRO orange fluorescence; percent of sucrose octasulfate shift, DMSO zero | calls only at 9.99 µM;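 active means melting point raised past a set limit in the mean and every replicate; inconclusive means no clear call; three in four hits are not shown here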
Vif A3G = inhibitors of Vif binding to APOBEC3G peptide, primary screen, biochemical, TR-FRET, GST-Vif 1-94, biotin-A3G peptide, dose response retest (AID 1117319) | TR-FRET GST-Vif / biotin-A3G peptide binding; higher % means a stronger effect; test concentration not given here; strong numbers were not always called active | 0.57% of 260,000 active | inhibition, %, or IC50 in µM where a hit was titrated;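 active means above the screen mean plus three standard deviations and confirmed in dose response; inconclusive means results disagree or hit not tested in dose response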;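 further: Vif residues 1-94 fused to GST binding biotinylated APOBEC3G peptide 110-148; 0% = full assay without inhibitor and 100% = GST in place of GST-Vif; retest series ran down from 100 µM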
* marks the source's active call; other numbers are inactive results; i = inactive; ? = inconclusive; / = not tested or not shown; & = joins results of further samples. Not all compounds are listed; the hit share may differ from the screen's.

SMILES	UCH37 DUB inh	E coli growth	RanGTP-Impb inh	AF4-AF9 inh	HNF4A DNA FP	FGF22 binding	Vif A3G
COC(=O)C1CC(O)C(O)C(O)C1 (stereo not given)	/	/	/	-0.8	-1.7	i	/
Clc1ccc(-c2cc(-c3ccccc3)on2)cc1	2.0	0.67	/	/	-7.0	/	/
COc1ccc(CNC(=O)C2CCN(C(=O)Cc3ccccc3)CC2)cc1	0.6	0.69	-0.3	-3.8	0.9	i	/
CC(C)NC(=O)COc1ccc(S(=O)(=O)N2CCOCC2)cc1	-0.6	0.71	-3.0	/	-3.5	/	-3%
O=C(O)C1C2C=CC3(CN(C/C=C/c4ccccc4)C(=O)C13)O2 (stereo not given)	0.3	0.67	-1.8	/	-3.1	/	5%
N#C/C=C/N1CCC(Cc2ccccc2)CC1	5.8	0.71	4.0	1.2	2.4	i	/
Cc1ccc(C(=O)NCC(=O)NCC(=O)OCc2ccc(Oc3ccc([N+](=O)[O-])cc3)cc2)cc1	4.3	0.7	2.4	/	-2.4	/	6%
CCOc1ccc(N(CC(=O)NCc2ccco2)C(=O)CCC(=O)Nc2nccs2)cc1	0.1	0.7	?	2.9	-3.5	i	1%
CCOc1cc(-c2sc(Nc3ccc(CC)cc3)n[n+]2-c2ccccc2)ccc1OC	2.1	0.61	/	27*	-1.1	i	/
C=CCN=C(NC#N)SCc1ccccc1	3.9	0.74	0.0	/	1.2	/	3%
CCN1C(=O)C2(Nc3ccccc3-c3nc4ccccc4n32)c2cc(OC)ccc21 (stereo not given)	-0.9	0.64	5.2	/	-0.2	/	2%
CC(=O)c1ccc(OCC(O)CN2CCN(CCO)CC2)cc1 (stereo not given)	8.8	0.74	-0.1	6.0	-1.5	i	-1%
COc1ccccc1NCC(=O)NN=C1CCS(=O)(=O)c2ccc(F)cc21	1.4	0.69	/	-1.1	-0.3	i	/
CC(=O)c1c(C)[nH]c(C(=O)CN2CCN(S(=O)(=O)c3ccccc3[N+](=O)[O-])CC2)c1C	5.9	0.68	/	-3.5	2.2	i	/
O=C(Nc1ccc(Cl)cc1N1CCOCC1)C1CCCCC1	3.9	0.7	3.0	0.1	0.3	i	/
Cc1ccccc1S(=O)(=O)Cc1ccc(C(=O)N(C)C2CCCCC2)o1	-2.6	0.69	0.8	2.6	-1.1	i	1%
Cc1nc(/C(N)=N/OC(=O)c2ccc(Cl)cc2)c(C(F)(F)F)o1	2.6	0.63	-0.7	-5.9	-1.6	i	-1%
CCC1CCC(C(=O)NC(C(=O)NCCCN2CCCCC2C)C(C)C)CC1 (stereo not given)	2.6	0.67	0.7	0.0	4.4	i	?
COc1cccc(NC(=O)CSc2nc3c(sc4ccccc43)c(=O)n2CCN(C)C)c1	-40	0.65	-0.5	0.5	-0.7	i	-5%
Cc1ccc2c(c1)N(CC(=O)NCCCN1CCN(C)CC1)C(=O)CO2	5.0	0.67	-1.3	-2.1	3.2	i	/
COc1cccc(-c2ccc(SCC(=O)NC3CCCC3)nn2)c1	5.5	0.67	-2.4	-7.8	4.4	i	/
CN(C)c1ncnc2c1nnn2C1OC(CO)C(O)C1O (stereo not given)	/	/	/	1.7	-2.7	i	0%
CCCCNc1nc(C)c(C(C)=O)cc1C#N	0.7	0.66	0.2	-2.1	-0.2	i	/
O=C(Nc1ccccn1)c1cccc(S(=O)(=O)N2CCCc3ccccc32)c1	0.2	0.69	/	3.6	1.6	i	-8%
CC(=O)c1ccc(N2CCN(C(=O)c3ccc(C(=O)c4ccccc4)cc3)CC2)cc1	6.4	0.71	/	1.2	2.7	i	/
SMILES	UCH37 DUB inh	E coli growth	RanGTP-Impb inh	AF4-AF9 inh	HNF4A DNA FP	FGF22 binding	Vif A3G
CC(=O)c1sc(N/N=C2\CC3CCC2(C)C3(C)C)nc1C (stereo not given)	/	/	0.5	4.7	-0.6	/	4%
CCCCn1c(=O)[nH]c(=O)c2c1nc(-c1ccc(C)c([N+](=O)[O-])c1)n2CC	1.9	0.7	0.6	-0.8	0.7	i	/
CC(C)(C)NC(=S)NCc1ccco1	/	/	1.5	5.0	11	i	?
Cc1ccc(CN(C)c2nc(-c3cccnc3)nc3ccccc23)o1	1.0	0.65	-1.7	5.6	-1.7	i	/
CC(C)NS(=O)(=O)c1ccc(CCC(=O)NCc2ccc3c(c2)OCO3)cc1	0.8	0.63	-3.4	/	3.0	/	17%
Cc1ccccc1C(=O)O	-0.3	0.67	/	/	-2.6	i	/
CC1=NN(C(=O)CSCc2ccccc2)C(O)(c2ccccc2)C1 (stereo not given)	32*	0.65	1.7	-1.0	0.6	i	12%
O=C1OC(CN2CCOCC2)CN1N=Cc1ccc([N+](=O)[O-])o1 (stereo not given)	7.2	0.064*	/	-4.1	-2.4	i	/
Cc1cc(C)nc(NC(=O)c2cnc3sccn3c2=O)n1	-9.0	0.74	2.8	-5.6	1.5	i	4%
COC(=O)C1=C(C)N(Cc2ccccc2)C(=NCc2cccc(C(F)(F)F)c2)N[C@H]1c1cccc(F)c1	1.2	/	-5.7	6.1	2.8	i	/
COc1ccc(NC(=O)c2cc3c(=O)n4ccccc4nc3n2C)cc1OC	-12	0.69	-3.7	-2.8	-2.0	i	-10%
Cc1nn(-c2ccc(F)cc2)c2sc(C(=O)OC3CCOC3=O)cc12 (stereo not given)	-31	0.69	5.4	/	0.6	/	-9%&22%
Cc1ccc(C(=O)N2CC(C)OC(C)C2)cc1S(=O)(=O)N1CCCCC1 (stereo not given)	2.8	0.7	/	-1.0	3.8	i	-7%
Clc1ccc(Nc2nc(NCCN3CCOCC3)nc(N3CCOCC3)n2)cc1	2.2	0.71	-1.6	/	2.5	/	1%
Cc1cc(C)n2nc(C(=O)OCC(=O)c3ccccc3)nc2n1	1.1	0.68	/	1.2	0.3	i	1%
Nn1c(SCc2ccc(F)cc2)nnc1-c1ccncc1	3.5	0.71	2.3	-3.4	3.4	i	17%
CN(CC(=O)N/N=C/c1ccc(F)cc1)S(=O)(=O)c1ccccc1	/	/	/	-1.2	0.3	i	-2%
CN(C(=O)CSc1nnc(-c2cccc(F)c2)n1N)C1CCS(=O)(=O)C1 (stereo not given)	3.6	0.68	-2.6	-2.5	4.3	i	-6%
N#CC(=C=[N-])C1=C(C#N)C(c2ccccc2F)C([n+]2ccccc2)C(O)(C2CC2)N1 (stereo not given)	0.2	0.68	-2.0	4.0	3.5	i	17%
CCOc1ccc(N(C(=O)c2ccc(S(=O)(=O)N3CCCC3)cc2)C2C=CS(=O)(=O)C2)cc1 (stereo not given)	2.7	0.71	3.7	-7.0	0.7	i	/
CCn1nnc(NC(=S)NC(=O)c2ccc(-c3cccc(Cl)c3)o2)n1	5.8	0.67	1.4	-0.6	-1.3	i	6%
Cc1cc(F)ccc1S(=O)(=O)Nc1c(C)n(C)n(-c2ccccc2)c1=O	3.4	0.7	1.5	2.2	-1.2	i	4%
Cc1ccc(S(=O)(=O)N2CCCCC2)c(C)c1NS(C)(=O)=O	0.6	0.65	0.5	-2.6	1.8	i	14%
CC(CNC(=O)CCS(=O)(=O)c1ccc2c(c1)NC(=O)CO2)c1ccccc1 (stereo not given)	1.6	0.68	-0.9	-2.3	-1.5	i	/
FC(F)(F)c1cnc(N2CCCN(C(=S)Nc3ccccc3)CC2)c(Cl)c1	4.9	0.68	1.0	-4.5	-0.6	i	-3%

A draw from above in order of SMILES length, smallest number first.
SMILES	UCH37 DUB inh	E coli growth	RanGTP-Impb inh	AF4-AF9 inh	HNF4A DNA FP	FGF22 binding	Vif A3G
CC(=O)c1sc(N/N=C2\CC3CCC2(C)C3(C)C)nc1C (stereo not given)	/	/	0.5	4.7	-0.6	/	4%
Cc1ccc(CN(C)c2nc(-c3cccnc3)nc3ccccc23)o1	1.0	0.65	-1.7	5.6	-1.7	i	/
COc1ccc(NC(=O)c2cc3c(=O)n4ccccc4nc3n2C)cc1OC	-12	0.69	-3.7	-2.8	-2.0	i	-10%
FC(F)(F)c1cnc(N2CCCN(C(=S)Nc3ccccc3)CC2)c(Cl)c1	4.9	0.68	1.0	-4.5	-0.6	i	-3%
CC(C)NS(=O)(=O)c1ccc(CCC(=O)NCc2ccc3c(c2)OCO3)cc1	0.8	0.63	-3.4	/	3.0	/	17%
COC(=O)C1=C(C)N(Cc2ccccc2)C(=NCc2cccc(C(F)(F)F)c2)N[C@H]1c1cccc(F)c1	1.2	/	-5.7	6.1	2.8	i	/

Later entries:
SMILES	UCH37 DUB inh	E coli growth	RanGTP-Impb inh	AF4-AF9 inh	HNF4A DNA FP	FGF22 binding	Vif A3G
CNC(=O)COc1ccc(Nc2nnc(-c3ccc(C)c(S(N)(=O)=O)c3)c3ccccc23)cc1	6.9	0.67	3.3	-1.4	2.3	i	-1%
CCOc1ccc(NC(=NCc2ccc3c(c2)OCO3)SC2CC(=O)N(c3ccccc3)C2=O)cc1 (stereo not given)	2.9	0.78	-0.4	/	1.7	/	/
COC(=O)c1c(-c2ccc(C)cc2)csc1NC(=O)C1CC=CCC1C(=O)O (stereo not given)	4.0	0.67	-0.5	/	0.1	/	12%
CCOC(=O)/C(C#N)=C/N1CCOCC1	1.2	0.67	1.0	-3.8	1.1	i	-6%
O=C(Nc1cccc2cccnc12)c1ccccc1Br	7.5	0.64	3.2	/	-3.3	i	/
CCc1ccccc1NC(=O)CCC(=O)N1CCN(C(C)=O)CC1	/	/	/	1.4	1.8	i	2%
O=C(Nc1cccc(C(=O)NC2CC2)c1)c1ccccc1	/	/	/	-2.9	2.8	i	/
O=C(Cn1c(=O)n(-c2ccccc2)c(=O)n1CC(=O)N1CCCCC1)N1CCCCC1	0.4	0.73	7.9	/	-3.9	/	6%
CCOc1nc(-c2ccccc2)ccc1-c1noc(-c2ccco2)n1	-42	0.68	-0.2	/	7.2	/	15%
CCc1cc(=O)oc2cc(OCC=C(C)C)ccc12	-20	0.69	?	-7.1	3.1	/	-6%
O=C(c1cc(COc2ccc3ncccc3c2)on1)N1CCC[C@H]1CO	-1.5	0.7	0.8	10	1.3	i	2%
CN(C)S(=O)(=O)c1cccc(NC(=O)COc2ccc(S(=O)(=O)N3CCOCC3)cc2Cl)c1	-3.5	0.66	/	-4.5	-2.1	i	-5%
O=C(Nc1cnn(Cc2ccc(Cl)c(Cl)c2)c1)C12CC3CC(CC(C3)C1)C2	0.0	0.67	-6.1	/	-1.0	/	9%
COCCN(C(=O)c1ccc2ccccc2c1)c1c(N)n(Cc2ccccc2)c(=O)[nH]c1=O	1.5	0.7	-0.7	-0.7	1.5	i	2%
O=C(COC(=O)c1nc(Cl)ccc1Cl)NC1CCCCCC1	4.1	0.72	-0.2	0.0	0.0	/	6%
Cc1nc2ccc(S(=O)(=O)Nc3ccc(-c4nc5cccnc5s4)cc3)cc2s1	/	/	21*	-5.8	3.0	i	28%
O=C(COC(=O)c1ccc(O)cc1)Nc1cc(S(=O)(=O)N2CCCCCC2)ccc1Cl	/	/	/	1.0	2.9	i	/
Cc1ccc(S(=O)(=O)N2CCN(C(=O)CN3CCN(C)CC3)C2)cc1	1.8	0.7	-3.6	-2.2	4.1	i	1%
CCOc1ccccc1NC1=NCC(=O)N1Cc1ccc(F)cc1	2.7	0.72	3.2	9.8	1.2	i	21%
Cc1c(NC(=O)C(C)Sc2ccc3ccccc3n2)c(=O)n(-c2ccccc2)n1C (stereo not given)	2.2	0.74	1.0	/	-1.6	/	?
CCOC(=O)/C(C#N)=N/Nc1ccccc1C(=O)O	/	/	-9.9	-8.2	-2.2	i	-1%
COCCC(C(=O)Oc1c(C(C)(C)C)cc(C)cc1C(C)(C)C)c1ccccc1 (stereo not given)	2.2	0.73	/	-3.7	4.0	i	/
CC(=O)c1cccc(NC(=O)C(=O)c2cn(CC(=O)N3CCCCC3)c3ccccc23)c1	1.9	0.67	-5.9	2.9	-0.7	i	-15%
